Cruzain inh noDet: qHTS Assay for Promiscuous and Specific Inhibitors of Cruzain (without detergent); purified cruzain, Z-FR-AMC fluorescence, no detergent; Potency, µM, inactives show max response, negative = inhibition, actives largely listed as inhibitors; actives 2.3% (n = 200,000); Cruzipain (Trypanosoma cruzi), P25779; AID 1476, 2009; active = well fitted curve in the direction sought with a large enough effect; inconclusive = small, poorly fitted or top-dose-only effect, or another doubt; inactive = no such curve, though single readings can be large; an effect the other way counts as inactive or inconclusive;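 also: plate controls were enzyme without inhibitor for no effect and buffer without enzyme for full effect; nearly all actives have a fitted effect of over 40% in size; top concentration of the series not given in the record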
Target sequence (P25779 123-467 limits assumed): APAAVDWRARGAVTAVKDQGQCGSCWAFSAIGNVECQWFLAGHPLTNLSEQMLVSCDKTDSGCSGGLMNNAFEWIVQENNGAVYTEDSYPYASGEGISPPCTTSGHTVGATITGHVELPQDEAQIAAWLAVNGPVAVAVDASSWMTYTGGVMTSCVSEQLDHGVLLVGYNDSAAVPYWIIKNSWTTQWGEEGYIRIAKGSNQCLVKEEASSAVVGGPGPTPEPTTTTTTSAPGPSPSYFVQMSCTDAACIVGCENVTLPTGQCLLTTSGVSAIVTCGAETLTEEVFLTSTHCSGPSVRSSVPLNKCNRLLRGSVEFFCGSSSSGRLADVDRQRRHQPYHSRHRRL
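Purified cruzain at 1.5 nM, pre-incubated 15 min with compound at room temperature in 100 mM sodium acetate pH 5.5, 5 mM DTT, 0.00005% Triton X-100. Reaction started with 2 uM Z-FR-AMC; AMC fluorescence increase over 60 s gives rate.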
SARS PLpro yeast: qHTS of Yeast-based Assay for SARS-CoV PLP | S. cerevisiae expressing SARS-CoV PLpro, growth rescue; control for the full effect not named in the record | Potency, µM (highest dose often 32.9 µM), for inactives: at the highest dose activity, positive = growth rescue | actives 0.19% (n = 330,000); also: 0% is about no effect; nearly all actives have a fitted effect of over 55% in size; growth read by luminescence after 48 h
Lassa entry inh: qHTS for Inhibitors of binding or entry into cells for Lassa Virus; Lassa virus pseudotype entry inhibition, cell reporter; control for the full effect not named in the record; Potency, µM (titrated, usually from 37.9 µM), for the others: top-dose activity change, negative = inhibition, actives largely listed as inhibitors; actives 1.2% (n = 300,000); active means well fitted inhibition curve with a large enough effect; inconclusive means small, poorly fitted or top-dose-only effect, or effect the other way; inactive means flat fitted curve, though single readings scatter; tested in HEK293 cells; also: % is scaled to controls: 0 for no effect and ±100 for the full control effect; nearly all actives have a fitted effect of over 50% in size; luciferase read-out
NS1 inh: qHTS Assay for Inhibitors of Influenza NS1 Protein Function | S. cerevisiae slowed by influenza A NS1, growth recovery by OD600 | Potency, µM (series often up to 46.1 µM), inactives show top-dose activity, positive = more growth | actives 0.4% (n = 270,000) | AID 2326, 2010; also: actives are rising curves; nearly all actives have a fitted effect of over 50% in size
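Recovery from NS1-induced slow growth read by OD600 in budding yeast switched to galactose assay medium (pH 6.0, -URA) at 1:100 dilution. Compound 23 nl per well; the matching strain lacking NS1 serves as control.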
RE007 growth inh: qHTS Assay for Inhibitors of the HIV-1 protein Vpr; S. pombe RE007 Vpr strain, BacTiter-Glo ATP luminescence, 24 h; control for the full effect not named in the record; Potency, µM (top dose mostly 92.2 µM), without a hit: at the highest dose activity change, negative = less growth; actives 0.21% (n = 360,000); AID 651644, 2012; active = well fitted falling curve with a large enough effect; inconclusive = small, poorly fitted or top-dose-only effect; inactive = no such curve, though single readings can be large or run the other way;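 also: % is scaled to controls: 0 for no effect and ±100 for the full control effect; nearly all actives have a fitted effect of over 50% in size; the assay follows cell death caused by Vpr and the record does not say whether a fall means rescue or toxicity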
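Fission yeast strain RE007, carrying one chromosomally integrated HIV-1 vpr copy, was seeded at OD 0.01 in PMG+AL medium with 23 nL pinned compound. After 24 h at 30 °C and 99% humidity, viability was read by BacTiter-Glo luminescence.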
StopGo reporter: High Throughput Screening for Foot and Mouth Disease Virus Antivirals; human cells with a luciferase reporter of 2A StopGo recoding; control for the full effect not named in the record; Potency, µM (doses to about 57.9 µM), inactives show at the top dose signal change, negative = less light; actives 1.2% (n = 410,000); AID 1159524, 2015; active = well fitted falling curve with a large enough effect; inconclusive = small, poorly fitted or top-dose-only effect; inactive = no such curve, though single readings can be large or run the other way; tested in HEK293T cells; also: % is scaled to controls: 0 for no effect and ±100 for the full control effect; nearly all actives have a fitted effect of over 45% in size; luciferase light after 4 h
Marburg entry inh: qHTS for inhibitors of binding or entry into cells for Marburg Virus. Marburg virus pseudotyped entry inhibition, cell reporter; control for the full effect not named in the record; about a third of the inactives were read at about 46 µM. actives 1.8% (n = 300,000). Potency, µM (titrated, usually from 37.8 µM), for inactives: top-dose activity change, negative = inhibition, actives largely listed as inhibitors; active = well fitted inhibition curve with a large enough effect; inconclusive = small, poorly fitted or top-dose-only effect, or effect the other way; inactive = flat fitted curve, though single readings scatter; tested in HEK293 cells; about a fifth of its hits are not listed in these tables; also: % is scaled to controls: 0 for no effect and ±100 for the full control effect; luciferase read-out
Cruzain Triton: qHTS Assay for Promiscuous and Specific Inhibitors of Cruzain (with detergent); purified cruzain, Z-FR-AMC fluorescence, 0.01% Triton; Potency, µM, without a hit: max response, negative = inhibition, hits mostly inhibitors; actives 0.43% (n = 200,000); active = well fitted curve in the direction sought with a large enough effect; inconclusive = small, poorly fitted or top-dose-only effect, or another doubt; inactive = no such curve, though single readings can be large; an effect the other way counts as inactive or inconclusive;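 also: plate controls were neutral wells for no effect and buffer without enzyme for full effect; nearly all actives have a fitted effect of over 40% in size; top concentration of the series not given in the record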
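15 min RT preincubation of 1.5 nM cruzain with compound, then 2 uM Z-FR-AMC added; kinetic AMC fluorescence, 60 s delta. Triton X-100 0.01%, pH 5.5.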
Starred values were filed as active, the others as inactive; ? = inconclusive; · = no result given; [ ] = remark or other dose. Unless noted, calls follow the shape of the dose curve; as a rule, active means well fitted rising curve with a large enough effect; inconclusive means small, poorly fitted or top-dose-only effect; inactive means no such curve, though single readings can be large or run the other way. Potency is read from the fitted curve at half-maximal effect.

SMILES	Cruzain inh noDet	SARS PLpro yeast	Lassa entry inh	NS1 inh	RE007 growth inh	StopGo reporter	Marburg entry inh	Cruzain Triton
CCCCn1c(N)c(N(CCOC)C(=O)c2c(-c3ccccc3)noc2C)c(=O)[nH]c1=O	·	0.4%	-4.2%	·	2.1%	-3.1%	6.9%	·
CCOC(=O)c1oc2c(CN3CCN(C)CC3)c(O)ccc2c(=O)c1-c1ccc(Br)cc1	-1.6%	-6.8%	12.6%	13.7%	-2.7%	0.0%	-0.7%	-5.2%
COc1ccc(C(=O)Nc2ccc3c(c2)n(C)c(=O)n3C)cc1OC	·	1.5%	·	2.8%	-6.0%	2.5%	·	·
COC(=O)C1=C(C(=O)c2ccccc2)C(c2ccc(O)c(OC)c2)n2nnnc2N1 (centres undefined)	1.1%	-0.5%	0.1%	-8.1%	-8.6%	-0.6%	6.9%	2.3%
NNC(=O)c1cnn(Cc2ccccc2)c1N	-21.4%	-1.6%	?	22.6%	-0.7%	-17.5%	-7.2%	-2.7%
Cn1c(SCC(=O)c2ccc(F)cc2)nnc1-c1ccccn1	·	1.5%	-0.7%	3.0%	-18.8%	40.8%[activator]	12.6%[46.1 µM]	·
O=[N+]([O-])c1cccc(/C([O-])=C(/C(=S)Nc2ccccc2F)[n+]2ccccc2)c1	·	-0.6%	?	-0.7%	14.5%	25.4%	-17.1%	·
COC(=O)[C@@]1(Cc2ccc(OC)cc2)[C@H]2c3cc(C(=O)N4CCCC4)n(CCc4ccc(OC)c(Br)c4)c3C[C@H]2CN1C(=O)c1ccccc1	?	·	·	·	-6.3%	-3.6%	·	-0.4%
CCOC(=O)C1=C(C)NC(C)=C(C(=O)OCC)C1c1ccc(C)o1	·	1.2%	·	0.2%	10.0%	-17.5%	·	·
CC(=O)OC(C(=O)NC1CCCCC1)c1cccc(F)c1 (centres undefined)	·	5.8%	·	8.4%	-4.4%	-1.2%	·	·
CC(=O)c1ccc(N2CCN(S(=O)(=O)c3ccc4[nH]c5c(c4c3)CCCCC5)CC2)cc1	10µM*	·	-25.3%[46.1 µM]	·	·	-10.1%	·	-5.9%
Cc1cc(C)n2nc(C(=O)OCC(=O)c3ccccc3)nc2n1	·	-2.8%	16.9%	·	37.2%	9.4%	?	·

In another format: entries from further up.
| Structure | Cruzain inh noDet | SARS PLpro yeast | Lassa entry inh | NS1 inh | RE007 growth inh | StopGo reporter | Marburg entry inh | Cruzain Triton |
| --- | --- | --- | --- | --- | --- | --- | --- | --- |
| CCCCn1c(N)c(N(CCOC)C(=O)c2c(-c3ccccc3)noc2C)c(=O)[nH]c1=O | · | 0.4% | -4.2% | · | 2.1% | -3.1% | 6.9% | · |
| CCOC(=O)c1oc2c(CN3CCN(C)CC3)c(O)ccc2c(=O)c1-c1ccc(Br)cc1 | -1.6% | -6.8% | 12.6% | 13.7% | -2.7% | 0.0% | -0.7% | -5.2% |
| COc1ccc(C(=O)Nc2ccc3c(c2)n(C)c(=O)n3C)cc1OC | · | 1.5% | · | 2.8% | -6.0% | 2.5% | · | · |
| COC(=O)C1=C(C(=O)c2ccccc2)C(c2ccc(O)c(OC)c2)n2nnnc2N1 (centres undefined) | 1.1% | -0.5% | 0.1% | -8.1% | -8.6% | -0.6% | 6.9% | 2.3% |

Further entries
SMILES	Cruzain inh noDet	SARS PLpro yeast	Lassa entry inh	NS1 inh	RE007 growth inh	StopGo reporter	Marburg entry inh	Cruzain Triton
Cc1c(Cl)c([N+](=O)[O-])nn1Cc1ccc(C(=O)N/N=C\c2cc(Cl)ccc2O)o1	?	?	?	-14.6%	-8.0%	-26.2%	?	-2.7%
Cc1cc(C)c(S(=O)(=O)NCc2nc3nc(C)cc(C)n3n2)c(C)c1	·	-0.1%	·	-1.5%	-8.9%	-19.8%	·	·
Cc1cccc2sc(NNC(=O)c3ccc(S(=O)(=O)N4CC(C)CC(C)C4)cc3)nc12 (centres undefined)	-26.3%	3.98µM*	?	9.0%	3.4%	?	?	0.5%
C=CCSC1=Nc2sccc2C2=NC(=O)CN12	-0.7%	9.4%	13.6%	0.9%	6.9%	-17.2%	3.3%[46.1 µM]	-3.2%
CCCS(=O)(=O)c1nc(S(=O)(=O)c2ccc(C)cc2)c(NCc2ccccc2Cl)s1	?	·	-7.5%[46.1 µM]	·	·	29.6%	?	-3.7%
Cn1c(=O)c(C(=O)CN2CCN(S(=O)(=O)c3ccccc3)CC2)c(N)n(Cc2ccccc2)c1=O	2.9%	12.2%	6.4%	-9.1%	-4.9%	?	?	0.2%
Cc1ccc(OCC(=O)Nn2cnc3ccccc32)cc1	-4.4%	11.3%	-14.5%	-7.1%	6.9%	9.5%	3.6%	2.6%
CCn1nnnc1SCC(=O)NC1CCCC1	-4.7%	2.6%	3.4%	1.0%	-1.4%	-3.1%	11.5%	3.0%
COc1ccccc1CNC(=O)CN1C(=O)CSc2ccc(S(=O)(=O)N(C)C)cc21	-5.9%	·	-2.2%[46.1 µM]	·	·	-20.3%	·	1.0%
C/C(=N\NC(=O)CN1CCOCC1)C(C)(C)C	-1.1%	4.1%	18.2%	-2.0%	5.6%	9.0%	20.4%	5.9%
CC(C)CCn1c(Oc2ccc(Cl)cc2)nc2c1c(=O)n(C)c(=O)n2C	7.9%	-6.6%	6.3%	-1.0%	-19.5%	?	9.4%	-5.3%
O=C(c1ccccc1F)N1CCN(Cc2ccc3c(c2)OCO3)CC1	·	2.0%	3.1%	11.4%	3.7%	?	-22.3%	·
O=c1[nH]c(CN2CCN(Cc3ccc4c(c3)OCO4)CC2)nc2ccccc12	13.8%	25.0%	16.4%	6.9%	-2.4%	-17.5%	-15.9%	4.3%
CCCCS(=O)(=O)c1oc(-c2ccc(F)cc2)nc1S(=O)(=O)c1ccccc1	-2.9%	·	?	·	·	31.6µM*	?	-5.4%
COc1cccc(C(=O)NCC(=O)N/N=C/c2c(C)[nH]c3ccccc23)c1	·	-11.5%	·	12.8%	11.4%	?	·	·
COc1cc(-c2nnc(SCC(=O)N3CCOCC3)o2)cc(OC)c1OC	·	-0.2%	?	-0.1%	-8.2%	-1.2%	?	·
O=C(C[n+]1ccc2ccccc2c1)c1ccc(NC(=O)c2ccccc2)cc1	·	-0.4%	-27.1%	3.8%	2.1%	-23.8%	-5.7%[46.1 µM]	·
CCOc1ccc(/C=C/c2nc3ccccc3n2S(=O)(=O)c2ccc(Br)cc2)cc1	-7.6%	·	?	·	·	8.1%	25.9%[46.1 µM]	-10.2%
COc1cccc(C(=O)NC2=NCCS2)c1OC	-8.7%	0.8%	23.0%	-8.9%	-9.9%	0.0%	?	3.5%
N=C1C(c2nc(-c3ccc(Cl)cc3)cs2)=C(O)CN1NC(=O)c1ccc(O)cc1	·	-2.6%	·	-3.5%	15.3%	39.3%[activator]	·	·
O=C(NCc1ccccn1)c1ccc(-c2ccccc2)cc1	·	-1.7%	4.5%	-3.0%	3.2%	40.5%[activator]	-8.8%[46.1 µM]	·
O=C(Nc1c(C(=O)N2CCOCC2)cnn1-c1ccccc1)c1cccc(F)c1	·	-0.9%	-1.5%	-4.2%	3.8%	-4.0%	1.9%	·
O=C(CCc1nc2ccccc2c(=O)[nH]1)Nc1nnc(SCc2ccccc2)s1	·	2.0%	-2.7%	·	1.9%	-9.1%	?	·
CCCc1cc(=O)[nH]c2nnc(SCC(=O)Nc3nnc(SCC)s3)n12	·	-5.6%	-0.6%[46.1 µM]	·	?	-17.8%	2.9%	·
Cc1cc(NC(=O)c2cc3ccccc3o2)cc(C)c1OCC(=O)N1CCOCC1	?	-3.1%	?	-6.8%	9.4%	·	?	-1.2%
Cc1ccc(-c2nn(CCC(=O)Nc3ccc(OC(F)(F)F)cc3)c(=O)c3ccccc23)cc1	3.3%	·	0.7%[46.1 µM]	·	·	?	-0.7%[46.1 µM]	-0.5%
Cc1nc(Nc2ccccc2)sc1C(=O)c1ccc(F)cc1	·	-10.1%	?	-9.7%	?	50.2%[activator]	-3.5%	·
Cc1ccc2nc(-c3ccccc3)cc(C(=O)N3CCc4ccccc4C3)c2c1	?	-9.5%	·	0.3%	13.6%	-13.3%	1.4%	-5.6%
CCOc1ccc(-n2c(=O)c3c(C)c(C)sc3n(Cc3cc(=O)n4cc(Cl)ccc4n3)c2=O)cc1	1.0%	·	29.0%[46.1 µM]	·	·	15.7%	5.7%[46.1 µM]	-2.6%
O=C(CSc1ccc(-c2ccco2)nn1)NCc1ccc(F)cc1	-1.2%	15.3%	1.2%	1.3%	-14.7%	-7.2%	24.5%	-1.7%
Cc1ccc(-c2cc(C(=O)Nc3cc(C)ccc3C)[nH]n2)c(O)c1	12.6µM*	29.9%	13.6%	18.4%	28.2%	13.6%	?	-1.5%
O=C(/C=C\c1ccccc1)Nc1nccs1	-10.5%	-7.1%	?	6.8%	-17.3%	16.5%	-50.4%	-0.5%
S=C(NCc1ccccc1)C(=S)NCc1ccccc1	·	·	19.2%[46.1 µM]	·	3.6%	12.3%	-0.3%[46.1 µM]	·
CC(C)OP(=O)(OC(C)C)C(Nc1ccccc1)c1ccc2c(c1)OCO2 (centres undefined)	?	11.2%	?	7.6%	7.2%	-12.1%	?	-3.5%
CCCCNC(=O)c1sc(=S)n2c1[nH]c(=O)c1ccccc12	-3.3%	-37.7%	-2.8%	-58.1%	-19.6%	0.0%	4.5%[46.1 µM]	-6.7%
CCc1cccc(C)c1NC(=O)c1cc(C)oc1C	-7.7%	0.7%	-0.2%	4.8%	-15.3%	-8.5%	7.6%	-0.7%
CCOC(=O)c1ccc(NC(=O)N2CCc3ccccc3C2)cc1	·	-10.0%	·	-50.4%	11.6%	-1.5%	·	·
Cc1ccc(C(=O)N/C(=C\c2ccc(Cl)cc2)C(=O)NC2CCCCC2)cc1	3.9%	·	-8.7%[46.1 µM]	·	·	3.3%	·	-1.3%
Cc1ccc(C(=O)NNC(=O)CCC(=O)Nc2cc(C)on2)cc1	-1.1%	12.3%	7.0%	12.4%	·	-12.0%	1.4%	-1.7%
